PKD1 inh = PKD1 (human) kinase inhibition. PKD1 kinase fluorescence polarization assay. inhibition, %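 (about 10 µM by stock and volumes)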. 200,000 compounds, 0.056% hits. AID 797;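 active = inhibition of 50% or more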;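 also: controls were vehicle for no effect and a reference inhibitor for full effect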
Insulin prom inh = TRM-6 insulin promoter activity inhibition; 130,000 compounds, 0.9% hits; TRM-6 cells (human fetal islet line), insulin promoter-eGFP reporter, imaging; reporter expression induced with tamoxifen; inhibition, % at 2 µM;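 active = inhibition above the mean plus 3 SD, with well images judged a real hit on visual review, cut at about 60% in these data, passing the limit was not always enough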
RGS16-Gao = regulators of human RGS16-Galphao interaction; bead-based flow cytometry RGS16-Galphao binding, fluorescence; actives lie on both sides; binding response (% of control), % at 10 µM; 220,000 compounds, 0.38% hits;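 active = below 25% or above 175%, edge rows of some plates excepted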;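 also: Galphao activated by GDP with aluminum fluoride before binding; 100% = wells without compound and 0% = beads without RGS; some results beyond the cut were filed as inactive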
Target sequence (O15492 whole entry, looked up): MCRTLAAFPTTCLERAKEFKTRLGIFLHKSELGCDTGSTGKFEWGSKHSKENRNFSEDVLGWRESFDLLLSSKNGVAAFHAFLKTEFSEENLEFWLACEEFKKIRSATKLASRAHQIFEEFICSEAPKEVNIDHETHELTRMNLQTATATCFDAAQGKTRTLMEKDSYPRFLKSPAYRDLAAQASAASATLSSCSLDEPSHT
Target sequence (P09471 whole entry, looked up): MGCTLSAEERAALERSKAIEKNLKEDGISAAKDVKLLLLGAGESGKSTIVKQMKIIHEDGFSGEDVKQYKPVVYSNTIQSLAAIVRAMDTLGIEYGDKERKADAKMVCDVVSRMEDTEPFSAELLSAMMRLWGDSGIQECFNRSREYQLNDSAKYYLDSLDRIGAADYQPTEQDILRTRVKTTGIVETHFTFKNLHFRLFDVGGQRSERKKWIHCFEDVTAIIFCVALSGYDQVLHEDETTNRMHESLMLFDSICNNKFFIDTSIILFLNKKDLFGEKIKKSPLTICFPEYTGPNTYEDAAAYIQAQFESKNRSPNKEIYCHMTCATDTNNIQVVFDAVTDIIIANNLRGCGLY
GALR2 agonist = agonists of human galanin receptor 2 (GALR2); 140,000 compounds, 0.48% hits; GALR2-expressing cells, agonist activation read-out; AID 803; O43603; activation, %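 (tested at 5 µM)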;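 active = above mean plus 3 SD of all compounds, about 5% in these data, not always enough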;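 also: 0% = vehicle buffer wells and 100% = reference agonist at full effect; tested in CHO reporter cells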
Target sequence (O43603 whole entry, looked up): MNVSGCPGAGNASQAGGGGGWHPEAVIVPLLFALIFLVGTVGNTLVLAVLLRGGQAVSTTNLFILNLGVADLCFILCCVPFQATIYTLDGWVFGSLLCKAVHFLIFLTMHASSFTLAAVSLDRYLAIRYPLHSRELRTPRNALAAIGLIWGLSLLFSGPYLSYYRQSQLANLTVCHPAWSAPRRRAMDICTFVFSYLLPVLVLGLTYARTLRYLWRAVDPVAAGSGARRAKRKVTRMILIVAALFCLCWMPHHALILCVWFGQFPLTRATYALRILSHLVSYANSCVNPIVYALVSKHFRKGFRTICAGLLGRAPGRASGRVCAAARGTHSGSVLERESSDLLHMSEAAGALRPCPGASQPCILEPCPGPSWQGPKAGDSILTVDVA
HSV augment = increases HSV replication in cells; HSV replication augmentation in cells, fold increase; maximum fold increase; 220,000 compounds, 0.005% hits;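 active = peak rise of 1.5-fold or more in the series; tested in PC3 cells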;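 also: first round at 10 µM; read as green reporter fluorescence; hits show the peak of a series up to 25 µM; 1 = signal of infected wells without compound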
Insulin prom inh cell count = further read-out of Insulin prom inh, marked with its call; normalized cell count, %; measured here: cell count, toxicity; reference of the scale not given here;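 cells exposed to compound for 48 h; stained nuclei by imaging scaled within each plate; lower means fewer cells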
HSV augment primary fold = second read-out of HSV augment, no call of its own (marks repeat the call); fold increase; compound at 10 µM; measured here: primary screen fold increase 10 uM; tested in PC3 cells;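 GFP signal in the first replicate; 1 = infected wells without compound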
Active calls of the source: *; i = inactive; . = no result given. Random draw from the library (roughly 1.3% active in at least one column).

smiles,HSV augment primary fold,Insulin prom inh,HSV augment,PKD1 inh,Insulin prom inh cell count,GALR2 agonist,RGS16-Gao
Fc1ccccc1Cc1noc(CN2CCN(c3ccc(Cl)cn3)CC2)n1,0.97,.,i,0.4,.,.,113.6
COc1ccc(Nc2nc(=O)c3cc([N+](=O)[O-])ccc3s2)cc1,0.88,.,i,.,.,.,93.5
Cc1oc(-c2cccc(Cl)c2)nc1CN1CCC(C(=O)N2CCN(c3ccccc3F)CC2)CC1,.,.,.,2.0,.,.,109.9
COc1ccc(C(=O)C(C)[n+]2ccc(-c3nnc4n3CCCCC4)cc2)cc1 (configuration not stated),0.87,.,i,.,.,.,99.5
CCCCN(C)C(=O)c1ccc(S(=O)(=O)N2CCOCC2)cc1,0.97,.,i,-8.0,.,-0.2,104.5
COc1ccc(C2C3=C(CC(C)(C)CC3=O)Nc3c2c(=O)n(C)c(=O)n3C)cc1OC (configuration not stated),1.09,38.9,i,-6.8,83.0,.,110.7
OCC1CCCN1C(=S)Nc1ccccc1 (configuration not stated),0.88,24.4,i,-4.8,74.6,-0.6,101.8
CN1/C(=C\C(=O)c2ccco2)c2ccccc2CC1(C)C,1.02,.,i,5.7,.,-2.7,98.3
CC(C)(C)C1=C(C#N)C(c2cccnc2)C(C#N)=C(N)O1 (configuration not stated),1.08,0.0,i,5.0,165.5,-2.4,69.0
O=C(NCC(=O)N(Cc1cccs1)C(C(=O)NC1CCCCC1)c1ccncc1)c1ccco1 (configuration not stated),1.09,-253.3,i,6.3,110.6,-2.0,103.6
O=C(Nc1ccccc1)N1CCC(n2c(=O)[nH]c3ccccc32)CC1,0.9,.,i,-2.7,.,0.1,130.9
C=CCn1c(SCC(=O)N2CCc3ccccc3C2)nc2sc(C)c(C)c2c1=O,1.06,3.2,i,-4.5,88.8,0.5,101.6
O=C(Nc1ccc(N2CCOCC2)c(C(=O)O)c1)c1ccco1,0.85,-2.9,i,-9.2,123.3,-1.7,115.9
COC(=O)c1ccccc1NC(=O)c1cc2sccc2n1C,1.05,.,i,-14.2,.,-1.3,90.9
Cc1cc(=O)n(Cc2ccc(OC(C)C)cc2)c(=S)[nH]1,0.98,16.7,i,-8.1,112.7,.,103.2
O=C(Cn1cc(C(F)(F)F)ccc1=O)N1CCN(S(=O)(=O)c2ccc(Cl)cc2)CC1,0.98,-14.3,i,-4.5,146.6,-0.4,97.8
COc1ccccc1-c1cc(N)n(S(=O)(=O)c2cccc3nsnc23)n1,0.94,.,i,.,.,.,100.0
Cc1ccc(/C=N/NC(=O)c2sccc2OCc2ccc(F)cc2)cc1,0.977,-13.3,i,-10.4,84.6,1.5,101.4
CC(=O)N/N=C(\C)c1ccc(Br)cc1Br,0.84,.,i,-3.0,.,.,93.8
CC1CCc2sc(C(=O)N/N=C/C3CCCCC3)cc2C1 (configuration not stated),0.97,13.5,i,-5.3,97.5,-0.8,52.3
CCCCCCCCC(=O)NCCOc1ccccc1,0.93,.,i,6.8,.,-0.2,101.0
CCOC(=O)C(=O)NC12CC3CC(CC(C3)C1)C2,0.99,20.0,i,-11.2,84.3,-0.8,106.0
COc1ccc(Cl)cc1C(=O)Nc1ccc(S(N)(=O)=O)cc1,0.93,.,i,.,.,.,103.0
COc1ccc(S(=O)(=O)Nc2ccc(CC#N)cc2)cc1,0.88,-268.0,i,-5.1,37.4,-2.5,93.5
Cc1ccc(OCCn2cc(/C=C(\C#N)C(=O)NCC3CCCO3)c3ccccc32)cc1 (configuration not stated),0.88,0.0,i,10.1,116.4,-2.6,104.5
CCCC(=O)NCc1cc(-c2nn(C)c(=O)c3ccccc23)ccc1C,0.97,50.0,i,-0.2,44.3,-0.5,96.9
Cn1c(=O)c2c(nc(SCC(=O)NCC3CCCO3)n2C)n(C)c1=O (configuration not stated),1.01,.,i,0.4,.,-2.4,55.8
COCCn1c(SCC(=O)Nc2nnc(C)s2)nnc1-c1ccoc1C,1.08,.,i,2.6,.,.,107.5
COc1cc(/C=N/NC(=O)c2cc(-c3ccco3)nc3ccccc23)cc(OC)c1O,1.06,.,i,.,.,.,83.8
COC(=O)[C@@H](NC(=O)/C=C/c1ccc(OC)cc1)C(C)C,1.1,.,i,-2.5,.,.,98.2

Individual results from the entries so far:
PKD1 inh result of CCOC(=O)C(=O)NC12CC3CC(CC(C3)C1)C2 stands at -11.2
PKD1 inh result of COC(=O)[C@@H](NC(=O)/C=C/c1ccc(OC)cc1)C(C)C stands at -2.5
PKD1 inh result of Cc1ccc(/C=N/NC(=O)c2sccc2OCc2ccc(F)cc2)cc1 stands at -10.4
RGS16-Gao result of COc1ccc(Cl)cc1C(=O)Nc1ccc(S(N)(=O)=O)cc1 stands at 103.0
HSV augment primary fold result of CC1CCc2sc(C(=O)N/N=C/C3CCCCC3)cc2C1 (configuration not stated) stands at 0.97

Further results
smiles,HSV augment primary fold,Insulin prom inh,HSV augment,PKD1 inh,Insulin prom inh cell count,GALR2 agonist,RGS16-Gao
OC1O[C@H](c2ccc3c(c2)OCO3)[C@H]2CO[C@H](c3ccc4c(c3)OCO4)[C@@H]12 (some centres not stated),0.99,.,i,.,.,.,93.0
C=C(C)c1cccc(C(C)(C)NC(=O)NCc2cccnc2)c1,0.87,.,i,2.9,.,.,104.8
Cc1ccc(C2c3sc(=O)[nH]c3SC3C4CC(C5C(=O)N(C(C)C(=O)O)C(=O)C45)C23)cc1 (configuration not stated),1.07,-64.0,i,0.0,58.2,-1.8,61.9
CCOc1ccc(C(=O)NCCN2CCCC2)cc1,0.98,.,i,-5.5,.,.,102.8
Nc1cc(=O)[nH]c(SCC(=O)NNC(=O)Cc2ccccc2)n1,0.93,.,i,-3.7,.,.,92.4
Cc1c(C(=O)OCCOC(C)C)[nH]c2c1C(=O)CC(c1ccco1)C2 (configuration not stated),0.65,.,i,-3.1,.,1.6,97.0
O=C(c1ccccc1)N1C(=O)C(c2ccccc2)Oc2ccccc21 (configuration not stated),1.06,.,i,.,.,.,89.0
Nc1nnc(SCCN2C(=O)c3ccccc3C2=O)s1,1.03,-11.4,i,2.2,101.7,-2.2,117.3
O=C(NCCCCCCNC(=O)c1cccs1)c1cccs1,0.99,.,i,-3.6,.,.,71.5
CCn1c(SCC(=O)N/N=C/c2ccc(OC)c(OC)c2)nc2ccccc21,0.9,4.3,i,-6.3,105.4,0.7,103.7
O=C(CC(c1ccco1)S(=O)(=O)c1ccccc1)c1ccccc1 (configuration not stated),0.87,-16.7,i,-1.1,129.9,.,99.7
CC(=O)N1N=C(c2ccccc2)OC1c1ccc([N+](=O)[O-])s1 (configuration not stated),0.77,-193.3,i,0.4,25.4,.,103.3
COc1cc(SC)ccc1C(=O)Nc1ccccc1C#N,0.92,-322.7,i,-0.2,47.5,-5.3,100.6
COc1cc(C2CC(=O)NC3=C2C(=O)CC(C)(C)C3)cc(OC)c1O (configuration not stated),1.05,-33.3,i,-0.2,102.8,-1.9,101.6
Cc1cc(SCC(=O)NN=C2CCN(C(C)C)CC2)c(C)cc1Br,1,33.3,i,-1.5,68.8,-0.6,73.5
CC(=O)c1ccccc1NCC(=O)Nc1ccc(C)cc1,1.09,-5.3,i,2.9,93.7,.,98.5
O=C(COC(=O)c1ccccc1[N+](=O)[O-])Nc1cc(S(=O)(=O)N2CCOCC2)ccc1N1CCCC1,0.94,.,i,4.2,.,.,89.4
O=C(Cn1c(C(F)(F)F)nc2ccccc21)N1CCCC1,1.08,.,i,0.0,.,-3.4,86.6
Cc1ccc(C)c(N2CCN(c3nnnn3-c3ccccc3)CC2)c1,0.883,-75.9,i,2.2,68.2,-0.5,101.7
CCCn1cc(C(=O)OCC)c(=O)c2cc(F)c(F)cc21,1.14,.,i,.,.,.,119.6
CC(NS(=O)(=O)c1cccc(Cl)c1)C(=O)Nc1ccc(-c2nc3ccccc3s2)cc1 (configuration not stated),0.79,-20.0,i,3.9,81.1,-2.4,101.9
Cc1ccc2nc3ccc(N4CCCC4)nn3c(=O)c2c1,0.99,.,i,-12.6,.,-1.0,94.3
O=C(Nc1nc(-c2ccccc2)ns1)c1ccncc1,1.02,.,i,.,.,.,95.9
Cc1cccc(NC(=O)CSc2nccn2C)c1,0.95,26.7,i,-2.7,146.4,-1.3,.
NC(=O)CSc1nc(O)cc(=O)n1-c1ccccc1,1.02,-9.1,i,-6.7,113.3,-1.0,101.5
N#Cc1c(NC(=O)c2cnn3cccnc23)sc2c1CCCC2,0.86,.,i,-6.9,.,.,97.9
COCCCNC(=S)N/N=C/c1ccc2c(c1)OCO2,1.05,.,i,.,.,.,100.7
CCCCCCOc1ccc(/C(C)=N/NC2=NCCN2)cc1[N+](=O)[O-],0.55,21.1,i,-4.5,82.4,.,103.8
CC(=O)Cn1c(CN2CCCC2)nc2ccccc2c1=O,0.79,21.4,i,-1.5,120.7,.,100.2
Oc1cccc(-c2nc3c4c(ncn3n2)-c2ccccc2CC42CCCC2)c1,0.76,.,i,16.9,.,-1.9,108.0

Sorted by count of non-hydrogen atoms (rising): part of the list above.
smiles,HSV augment primary fold,Insulin prom inh,HSV augment,PKD1 inh,Insulin prom inh cell count,GALR2 agonist,RGS16-Gao
O=C(Nc1nc(-c2ccccc2)ns1)c1ccncc1,1.02,.,i,.,.,.,95.9
O=C(NCCCCCCNC(=O)c1cccs1)c1cccs1,0.99,.,i,-3.6,.,.,71.5
Cc1ccc(C2c3sc(=O)[nH]c3SC3C4CC(C5C(=O)N(C(C)C(=O)O)C(=O)C45)C23)cc1 (configuration not stated),1.07,-64.0,i,0.0,58.2,-1.8,61.9

The results go on:
smiles,HSV augment primary fold,Insulin prom inh,HSV augment,PKD1 inh,Insulin prom inh cell count,GALR2 agonist,RGS16-Gao
COc1ccc(Br)cc1C(=O)Nc1ccccc1N1CCN(C(=O)c2ccccc2)CC1,0.95,.,i,-7.1,.,.,102.6
COc1ccc(NC(=O)/C(Cl)=C(/Cl)S(=O)Cc2ccc(Cl)cc2)cn1 (configuration not stated),0.64,-387.8,i,-4.3,8.6,.,92.5
Cc1ccccc1NC(=O)Cc1cccc(C(F)(F)F)c1,1.09,.,i,-1.3,.,.,96.9
CN(C)CCNS(=O)(=O)c1ccc(Cl)cc1,0.88,-35.1,i,-5.2,128.9,0.4,93.5
C/C(CC(=O)NC1CCCC1)=N\NC(=O)Cc1cccs1,0.89,-46.7,i,-0.9,34.8,-0.8,90.4
Cn1c(=O)n(Cc2ccc(F)cc2)c(=O)c2c1nc1n2CCN1Cc1ccco1,0.91,27.8,i,-9.9,134.2,.,100.2
CC1CCc2[nH]nc(C(=O)O)c2C1 (configuration not stated),0.82,12.5,i,-10.3,78.2,-2.2,83.8
O=C(CS(=O)(=O)c1ccccc1)Nc1cccnc1,0.95,.,i,-6.0,.,.,113.2
Cc1ccc(Nc2nc(N)c([N+](=O)[O-])c(N3CCOCC3)n2)cc1C,0.95,-14.8,i,3.2,98.0,0.5,98.8
COc1ccc(-n2c(=O)c3c4c(sc3n(Cc3cccc(F)c3)c2=O)CN(C(C)=O)CC4)c(OC)c1,0.84,42.9,i,-2.1,122.0,.,96.2
Cc1sc2nc(CN3CCOCC3)nc(NS(=O)(=O)c3ccc4c(c3)OCCO4)c2c1C,0.93,6.5,i,6.2,76.3,-1.1,77.6
CCN1CCN(C(=O)/C=C/c2ccccc2[N+](=O)[O-])CC1,1.04,.,i,6.2,.,.,105.4
Cc1ccccc1N(CC(=O)NC1CCCC1)C(=O)c1oc(C(C)(C)C)cc1C,0.84,22.6,i,2.1,93.1,-2.7,105.4
COc1ccc2[nH]cc(CCNS(=O)(=O)c3ccc(NC(C)=O)cc3)c2c1,0.97,.,i,2.8,.,.,104.3
Cc1ccc(NC(=O)c2cnn(C)c2)cc1[N+](=O)[O-],0.9,-21.4,i,-0.7,93.9,-1.3,102.7
Cc1ccc(OCCCC(=O)Nc2ccccc2C(F)(F)F)cc1,0.84,-223.3,i,-0.9,147.0,-3.7,99.7
O=C(Nc1nc2n(n1)C(c1ccc(F)cc1)CC(c1ccccc1)N2)c1ccco1 (configuration not stated),1.08,.,i,.,.,.,104.1
CCc1ccc(C2CC(=O)N(c3ccc(F)cc3)C3=C2C(=O)OC3)cc1 (configuration not stated),0.98,14.3,i,4.3,93.1,.,103.3
CCCC(=O)O[C@H]1C[C@@H](C)N(C(=O)c2ccccc2)c2ccc(C)cc21,0.95,-10.3,i,1.9,53.0,-0.6,100.9
COC(=O)Cn1c(=N)n(CCN2CCCCC2)c2ccccc21,1.02,36.4,i,9.0,124.4,-2.1,104.5
O=C(CCOc1ccccc1)Nc1ccc(S(=O)(=O)N2CCCC2)cc1,0.88,.,i,13.1,.,-1.5,104.6
